MT1-MMP act inh: blocks activation of human MT1-MMP; P50281; HT1080 RFP-PRO-GFP cells, GFP/RFP ratio fluorescence, overnight; percent of plate control window, DMSO zero; GFP/RFP ratio change, % at 20 µM; 360,000 compounds, 0.061% hits;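 active means GFP/RFP ratio change of at least 30% with cell ATP level not reduced by more than half and red fluorescence within 50% of control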; further: strong numbers were not always called active
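Test system: HT1080 cells expressing an RFP-PRO-GFP fluorescent reporter construct / Compound dosing: single-point 20 µM compound, 1% DMSO / Schedule: cells overnight before dosing, compound overnight, 37 °C, 5% CO2 / Evaluation: GFP/RFP fluorescence ratio / Control set: DMSO and RFP-L50D-GFP cell wells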
UUG fidelity: modulators of start codon recognition fidelity in yeast. activity score, % at 18.7 µM. 350,000 compounds, 0.13% hits. AID 602363. S. cerevisiae UUG-firefly luciferase reporter, luminescence/redox ratio;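 active means replicate mean at a twofold rise or more, about +100% in these data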;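 further: firefly luciferase made from a UUG start codon reports start codon fidelity; reporter light over untreated wells divided by growth signal over untreated wells; some hits fall short of that in this replicate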
Env fusion inh: blocks HIV Env-driven cell-cell fusion. HeLa-JRFL Env/CEM21 cell fusion, luciferase. inhibition, % at 12.3 µM. 360,000 compounds, 1.1% hits;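 active means mean replicate inhibition score of at least 50 and every replicate individually at or above 50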;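 further: 0% = plate neutral controls and 100% = maraviroc near 300 nM; one replicate is shown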
PABP polyA inh: PABP-poly(A) binding inhibition; P11940; PABP-poly(A) RNA binding, fluorescence polarization; inhibition, % at 35 µM; 290,000 compounds, 1% hits; AID 2014;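 active means 50% or more with normal probe brightness, or confirmed in later tests; about a fifth of its hits are not listed in these tables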;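 further: calls also rest on retests at 20 µM and on dose response follow-up; controls were probe without protein and protein plus probe with vehicle; some compounds called inactive have numbers as strong as hits; many hits fall short of the cut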
Target sequence (P11940 whole entry, looked up): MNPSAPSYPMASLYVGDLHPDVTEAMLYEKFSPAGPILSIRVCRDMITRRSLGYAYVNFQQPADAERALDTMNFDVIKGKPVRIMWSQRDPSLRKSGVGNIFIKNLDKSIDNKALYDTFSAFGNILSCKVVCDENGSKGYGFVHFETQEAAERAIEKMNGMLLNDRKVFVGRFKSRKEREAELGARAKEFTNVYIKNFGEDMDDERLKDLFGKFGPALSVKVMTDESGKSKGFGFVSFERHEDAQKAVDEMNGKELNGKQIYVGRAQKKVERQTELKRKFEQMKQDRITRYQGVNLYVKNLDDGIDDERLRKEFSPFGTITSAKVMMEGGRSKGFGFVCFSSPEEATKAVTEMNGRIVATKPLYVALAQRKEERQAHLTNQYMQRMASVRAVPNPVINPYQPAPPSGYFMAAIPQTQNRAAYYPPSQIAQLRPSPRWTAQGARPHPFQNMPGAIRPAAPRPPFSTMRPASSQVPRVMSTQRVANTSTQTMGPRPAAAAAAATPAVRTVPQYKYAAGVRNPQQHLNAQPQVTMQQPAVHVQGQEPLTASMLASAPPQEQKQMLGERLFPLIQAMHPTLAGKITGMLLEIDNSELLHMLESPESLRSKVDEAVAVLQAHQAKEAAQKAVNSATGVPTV
CSC inhib: blocks cancer stem cells | cancer stem cell-like cells viability, luminescence | inhibition, % at 7.5 µM | 300,000 compounds, 1.1% hits | AID 2717;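 active means mean at 75% or more and at least half the replicates too; tested in HMLE shEcad cells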;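 further: 0% = median of negative and 100% = median of positive control wells; the first replicate is given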
eIF4H inh: inhibitors of RNA binding by human eIF4H; Q15056; eIF4H fluorescence polarization binding assay; inhibition, % at 35 µM; 290,000 compounds, 0.94% hits; AID 2012;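 active means 50% or more with normal probe brightness, or confirmed in later tests; about a fifth of its hits are not listed in these tables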;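 further: calls also rest on retests at 20 µM and on dose response follow-up; 0% = protein and probe with vehicle and 100% = probe without protein; strong numbers were not always called active; many hits fall short of the cut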
Rce1 inhib: inhibitors of yeast Ras-converting enzyme | Q03530 | yeast membranes, quenched prenylated peptide cleavage fluorescence | calls only | 290,000 compounds, 0.27% hits;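 active means fall in fluorescence gain of 50% or more versus controls, with final raw signal at or below 3038400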;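 further: plate controls were neutral control wells for no effect and wells lacking membranes for full effect; tested at 10 µM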
MT1-MMP act inh RFP: further read-out of MT1-MMP act inh, marked with its call; RFP signal change, %; measured here: RFP expression control read;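 0 = vehicle wells; hits needed this value within 50% of zero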
* marks the source's active call; other numbers are inactive results; i = inactive; x = no result given; & = joins results of further samples.

SMILES	MT1-MMP act inh	MT1-MMP act inh RFP	UUG fidelity	Env fusion inh	PABP polyA inh	CSC inhib	eIF4H inh	Rce1 inhib
COc1ccc(CNC(=O)C(c2ccco2)N(Cc2cccs2)C(=O)Cc2cccs2)cc1 (centres undefined)	-5.7	-5.2	-19.3	2.0	-5.4	6.2	-9.3	i
OCCC1CN(Cc2nc3ccc(F)cc3[nH]2)CCN1C1CCCC1 (centres undefined)	0.5	5.9	-24.2	1.1	-5.3	-10.9	-1.9	i
C=CCN1C(=O)C2C(C(=O)NC)C3(C)C=CC2(O3)C1C(=O)NCc1ccc(OC)cc1 (centres undefined)	-8.8	2.1	-4.7	8.2	-0.8	x	-5.4	i
O=C(NNC(=O)C1COc2ccccc2O1)c1ccccc1 (centres undefined)	-3.5	0.5	x	-46.5	2.8	9.4	-5.5	i
OCc1nc2ccccc2n1CCCOc1ccccc1	4.2	-2.0	x	x	-17.2	1.5	2.3	i
O=C(O)c1ccc(C[n+]2c(-c3ccccc3)csc2Nc2ccccc2)cc1	-9.3	-4.8	x	-48.2	11.0	11.7	0.6	i
O=C(OCc1ccc(COC(=O)c2ccccn2)cc1)c1ccccn1	-2.0	3.5	-15.5	14.2	-20.1	-11.1	-8.6	i
COC(=O)C1C(c2ccccc2)C(C(=O)N2CCN(C)CC2)C1c1ccccc1 (centres undefined)	-0.7	9.9	-16.3	-26.0	-7.0	25.8	13.2	i
CCCCn1c(O)c(N=Nc2ccccn2)c2ccccc21	1.8	3.3	x	12.7	-4.9	-4.7	4.7	i
CCn1c(SCC(=O)Nc2cc(C)nn2-c2ccccc2)nnc1-c1cccs1	-0.1	-2.0	x	14.7	2.9	-10.0	3.7	i
COc1ccc(-c2noc(COc3ccccc3OC)n2)cc1OC	4.2	2.9	4.6	-37.9	-4.9	-7.1	-8.2	i
CCN1CCN(CCNC(=O)c2ccc(CS(=O)(=O)c3c(Cl)cccc3Cl)o2)CC1	-7.9	3.4	-2.9	-14.7	-1.1	-28.0	-7.2	x
O=C(N/N=C/c1ccccc1F)c1cccc2ccccc12	4.0	-2.2	-8.8	42.8	3.7	25.6	-3.1	i
Cn1cc(C(=O)c2ccccc2C(=O)O)cc1C(=O)C(Cl)(Cl)Cl	-8.5	-2.8	-15.1	-15.4	-6.5	x	-3.8	i
O=C(Cc1csc(NC(=O)Nc2ccc(Cl)cc2)n1)NCc1cccnc1	6.0	-7.8	-20.0	1.5	x	x	x	i
Cc1ccc([N+](=O)[O-])cc1S(=O)(=O)Nc1ccc(O)c(Sc2ncn[nH]2)c1	5.5	1.9	29.6	-12.9	4.4	-23.9	1.6	i
CC(=O)Oc1ccc(/C=C(\NC(=O)c2ccco2)C(=O)NCc2ccccc2)cc1	1.5	-2.2	-13.7	13.7	-7.5	x	-3.6	i
CCOC(=O)c1ccc(NC(=S)N2CCN(c3ccc(N4CCOCC4)nn3)CC2)cc1	-0.4	1.2	x	-3.7	-1.7	-5.2	-2.6	x
Cc1ccc(S(=O)(=O)N(C)CC(=O)N2CCCCCCC2)cc1	2.9	-1.1	-1.9	2.7	x	-12.4	x	i
CCOC(=O)C1=C(Nc2ccccc2)CC(C)(O)C(C(=O)OCC)C1c1ccccc1 (centres undefined)	-0.7	2.5	7.1	11.6	-0.6	17.1	1.5	i

Molecules from the list above containing an NH in an aromatic ring, in the order listed:
SMILES	MT1-MMP act inh	MT1-MMP act inh RFP	UUG fidelity	Env fusion inh	PABP polyA inh	CSC inhib	eIF4H inh	Rce1 inhib
OCCC1CN(Cc2nc3ccc(F)cc3[nH]2)CCN1C1CCCC1 (centres undefined)	0.5	5.9	-24.2	1.1	-5.3	-10.9	-1.9	i
Cc1ccc([N+](=O)[O-])cc1S(=O)(=O)Nc1ccc(O)c(Sc2ncn[nH]2)c1	5.5	1.9	29.6	-12.9	4.4	-23.9	1.6	i

Arranged by the number under Env fusion inh (falling): 3 of the compounds above.
| structure | Env fusion inh |
| --- | --- |
| O=C(OCc1ccc(COC(=O)c2ccccn2)cc1)c1ccccn1 | 14.2 |
| OCCC1CN(Cc2nc3ccc(F)cc3[nH]2)CCN1C1CCCC1 (centres undefined) | 1.1 |
| COC(=O)C1C(c2ccccc2)C(C(=O)N2CCN(C)CC2)C1c1ccccc1 (centres undefined) | -26.0 |

Profiles from above:
Entry for CCOC(=O)C1=C(Nc2ccccc2)CC(C)(O)C(C(=O)OCC)C1c1ccccc1 (centres undefined) : MT1-MMP act inh = -0.7; MT1-MMP act inh RFP = 2.5; UUG fidelity = 7.1; Env fusion inh = 11.6; PABP polyA inh = -0.6; CSC inhib = 17.1; eIF4H inh = 1.5; Rce1 inhib = i
Entry for CCN1CCN(CCNC(=O)c2ccc(CS(=O)(=O)c3c(Cl)cccc3Cl)o2)CC1 : MT1-MMP act inh = -7.9; MT1-MMP act inh RFP = 3.4; UUG fidelity = -2.9; Env fusion inh = -14.7; PABP polyA inh = -1.1; CSC inhib = -28.0; eIF4H inh = -7.2; Rce1 inhib = x

(listing goes on)
SMILES	MT1-MMP act inh	MT1-MMP act inh RFP	UUG fidelity	Env fusion inh	PABP polyA inh	CSC inhib	eIF4H inh	Rce1 inhib
O=c1c(N=Nc2ccc(O)cc2)c(-c2ccccc2)[nH]n1-c1ccc([N+](=O)[O-])cc1	21.2	-14.6	2.1	3.0	5.2	21.3	7.1	i
O=C(O)C1CCC(CN(Cc2cccc(Br)c2)C(=S)Nc2ccccc2F)CC1 (centres undefined)	-0.7	4.7	-19.7	-12.0	11.4	-6.1	-2.3	i
O=C(/C=C/c1cccs1)c1cc(Br)ccc1OC(=O)N1CCOCC1	-14.4	-8.5	-8.3	x	-0.6	-9.8	1.1	i
Cc1cc(C(=O)NNC(=O)[C@H](C)NC(=O)c2ccc(Br)cc2)c(C)o1	x	x	-8.4	-10.8	x	-19.9	x	x
CN(C)S(=O)(=O)N(CC(=O)NCCSCc1ccc(Cl)cc1)c1ccccc1	-1.3	-7.6	x	32.8	4.6	-4.4	3.8	i
CCC(CC)C(=O)Nc1ccc(Sc2ccc([N+](=O)[O-])cc2)cc1	0.9	-5.9	-15.1	x	8.1	2.0	-3.1	i
O=C(COC(=O)/C=C/c1ccc([N+](=O)[O-])cc1)NCc1ccc2c(c1)OCO2	-1.4	-0.7	-33.7	0.2	5.6	-11.2	-8.1	i
CCOc1ccc(Nc2nc3cc(S(=O)(=O)CC)ccc3o2)cc1	1.3	1.6	-13.9	-12.0	0.8	-4.5	-2.6	i
CC(=O)N1CCc2cc(S(=O)(=O)CCC(=O)N3CCN(C(=O)c4ccco4)CC3)ccc21	11.7	16.7	-6.8	x	12.9	x	-6.8	x
COc1ccc(C2NC(Cc3ccccc3)(C(=O)O)C3C(=O)N(c4ccccc4OC)C(=O)C23)cc1 (centres undefined)	-8.6	-6.1	x	-13.3	2.3	-8.9	-7.2	i
CN1CCN(C(=O)CCCN2C(=O)/C(=C/c3ccccc3)SC2=S)CC1	-4.4	-4.6	-15.2	-16.8	-4.7	39.8	-11.2	i
COc1cc2c(cc1OC)/C(=C/c1ccc(Cl)cc1)C(=O)OC2	-3.3	-2.3	1.2	13.9	8.0	4.3	1.7	i
O=C(c1ccc(Br)cc1)N(Cc1ccco1)C1CCS(=O)(=O)C1 (centres undefined)	2.0	3.2	-18.3	-5.9	0.9	-1.6	-1.4	i
CC1Cc2ccccc2N1C(=S)NC(=O)c1cccc(Br)c1 (centres undefined)	7.5	3.4	x	-9.2	49.8	-10.1	10.1	i
COc1ccc(CNC(=O)CSc2nnc(-c3ccc(NC(C)=O)cc3)n2C)cc1	0.8	1.9	-0.6	4.9	1.2	x	-3.7	i
COc1cccc(S(=O)(=O)N(C)C[C@H]2OCc3cnnn3CCCC(=O)N([C@@H](C)CO)C[C@@H]2C)c1	0.3	2.3	-1.2&3.4	-9.2	x	x	x	x
COc1ccc(-c2noc(C(C)NS(=O)(=O)c3ccc(NC(C)=O)cc3)n2)cc1 (centres undefined)	-4.1	-1.0	4.6	6.7	-3.8	-5.0	-10.3	i
c1coc(C2Nc3ccccc3C3OCCC23)c1 (centres undefined)	4.0	8.0	-15.2	-116.9	4.2	-21.2	2.7	i
COc1ccc(/C=C/C(=O)OCc2csc(-c3ccccc3)n2)cc1OC	3.7	0.2	x	17.3	15.6	-3.6	0.2	i
Cc1ccc(CNC(=O)c2cccc(S(C)(=O)=O)c2)cc1	4.7	4.6	6.7	x	10.4	-11.5	-2.2	i
Cc1ccc(C(C)NC(=O)c2cc(C)oc2C)cc1 (centres undefined)	3.0	2.3	-11.0	-3.4	0.9	x	-10.3	i
CN1C(=S)SC(N2OC3C(=O)N(c4ccccc4)C(=O)C3C2c2ccc(Cl)cc2)C1(C)C (centres undefined)	1.7	5.5	x	0.2	-8.7	-7.0	-4.9	i
COc1ccc(-c2csc(NC(=O)C3CCCO3)n2)cc1 (centres undefined)	2.8	-2.0	3.3	-64.2	-13.9	-1.9	-6.5	i
COc1ccc2[nH]c(=O)c(CN(Cc3ccc(C)cc3)Cc3nnnn3CC3CCCO3)cc2c1 (centres undefined)	-1.9	1.3	-25.7	x	7.8	-2.8	12.0	i
O=C(CN1C(=O)/C(=C/c2ccccc2)Sc2ccccc21)NCCCN1CCOCC1	-0.5	2.0	-1.6	-0.9	x	-25.6	x	i
COc1cc(-c2coc3c(C(=O)NCc4ccc(C(F)(F)F)cc4)cccc23)ccc1O	2.2	-10.1	-7.4	37.9	x	x	x	x
CC1(C)Cc2c(sc(/N=C/N3CCCCC3)c2C#N)C(C)(C)N1	-0.9	0.3	-10.0	-2.9	-6.7	x	-12.2	i
CCOC(=O)C1=C(COC(=O)/C=C/c2ccc(OCC)c(OC)c2)NC(=O)NC1C (centres undefined)	10.7	1.9	x	1.0	x	3.0	x	i
CC(=C/c1ccccc1)/C=N/NC(=O)c1nnn(-c2nonc2N)c1CN1CCC(C)CC1	-0.8	-7.5	1.2	21.8	-13.9	-2.9	-2.4	i
Cc1ccc(S(=O)(=O)NCCC(=O)NNc2c(F)c(F)cc(F)c2F)cc1	0.1	-5.6	31.6	x	x	-4.8	x	x
COc1ccc(CNc2cc([N+](=O)[O-])ccc2OC)cc1	1.2	-1.1	-3.6	x	1.3	-4.3	-0.6	i
O=C(OCC(=O)c1ccc(Cl)s1)c1ccc2ccccc2n1	-3.0	4.3	-10.3	-0.5	-1.7	0.8	3.4	i
O=C(CS(=O)(=O)c1c[nH]c2ccccc12)N1CCCCCC1	2.6	2.4	x	-2.2	1.6	-13.5	-3.1	i
C=CCNc1ncnc2c1ncn2[C@H]1CN(Cc2cccc3ccccc23)C[C@@H](CO)O1	0.0	-2.9	-7.0	9.6	x	x	x	x
COc1ccccc1CNC(=O)COC(=O)c1ccc(NC(N)=O)cc1	0.6	1.0	0.8	x	6.3	-11.0	-5.1	i
CN(CC(O)COc1c(F)cc(Br)cc1F)C1CCCCC1 (centres undefined)	-0.7	5.6	x	-2.4	6.4	16.3	2.0	x
O=C(CCc1ccccc1)Nc1cc2c(cc1Cl)OCCO2	0.5	-2.3	x	x	22.4	-9.4	0.9	i
COc1ccc(NC2=NCCC(=O)N2Cc2cccs2)cc1	-3.2	3.3	x	-13.9	20.9	-0.3	-2.6	i
Cc1cc(C)nc(SCC(CSc2nc(C)cc(C)n2)C(=O)O)n1	-0.7	4.3	x	12.2	3.7	-9.6	-4.2	i
CCC(=O)C1CCCN(C(=O)c2ccc(OC3CCN(C(=O)CCOC)CC3)cc2)C1 (centres undefined)	-0.8	0.4	4.5	43.7	-5.4	2.6	-2.0	i
CCOc1ccc(CN(C(=O)c2oc3ccccc3c2C)C2CCS(=O)(=O)C2)cc1 (centres undefined)	4.1	-4.9	-11.1	27.4	-1.0	x	-6.8	i
Cc1ccc(C)c(N2CCN(c3ccc4cc(S(=O)(=O)N5CCCCC5)ccc4n3)CC2)c1	6.9	-9.2	-9.6	14.7	7.9	29.2	-5.0	i
Cc1ccccc1C(=O)NNC(=O)Cc1cccc2ccccc12	1.9	-2.2	-5.7	x	1.2	-6.0	-9.9	i

Screening results as filed in PubChem.
